UUG fidelity = alters start codon recognition fidelity in yeast; AID 602363; 0.13% of 350,000 active; activity score, % at 18.7 µM; S. cerevisiae UUG-firefly luciferase reporter, luminescence/redox ratio;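 active means replicate mean at a twofold rise or more, about +100% in these data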;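 further: firefly luciferase made from a UUG start codon reports start codon fidelity; reporter light over untreated wells divided by growth signal over untreated wells; some hits fall short of that in this replicate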
PABP polyA inh = PABP-poly(A) binding inhibition | PABP-poly(A) RNA binding, fluorescence polarization | inhibition, % at 35 µM | 1% of 290,000 active | AID 2014;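 active means 50% or more with normal probe brightness, or confirmed in later tests; about a fifth of its hits are not listed in these tables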;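 further: calls also rest on retests at 20 µM and on dose response follow-up; controls were probe without protein and protein plus probe with vehicle; some compounds called inactive have numbers as strong as hits; many hits fall short of the cut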
Target sequence (P11940 whole entry, looked up): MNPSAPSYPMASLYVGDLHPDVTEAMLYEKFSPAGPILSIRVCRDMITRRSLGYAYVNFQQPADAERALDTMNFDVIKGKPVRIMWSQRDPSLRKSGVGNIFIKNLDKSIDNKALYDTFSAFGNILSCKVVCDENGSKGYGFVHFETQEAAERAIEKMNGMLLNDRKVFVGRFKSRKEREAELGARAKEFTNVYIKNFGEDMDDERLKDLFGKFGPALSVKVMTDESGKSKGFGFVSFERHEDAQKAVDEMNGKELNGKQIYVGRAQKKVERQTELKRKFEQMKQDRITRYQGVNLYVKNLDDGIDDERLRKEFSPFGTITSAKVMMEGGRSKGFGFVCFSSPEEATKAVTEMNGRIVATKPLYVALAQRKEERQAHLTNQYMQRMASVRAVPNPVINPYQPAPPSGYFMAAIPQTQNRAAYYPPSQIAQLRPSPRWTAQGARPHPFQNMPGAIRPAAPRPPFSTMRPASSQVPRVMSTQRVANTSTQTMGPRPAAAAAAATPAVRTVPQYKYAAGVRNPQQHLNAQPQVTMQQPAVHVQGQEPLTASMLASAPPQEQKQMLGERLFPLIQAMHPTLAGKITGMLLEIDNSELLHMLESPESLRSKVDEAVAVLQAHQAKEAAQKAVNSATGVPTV
Env fusion inh = inhibitors of HIV Env-mediated cell fusion; inhibition, % at 12.3 µM; HeLa-JRFL Env/CEM21 cell fusion, luciferase; 1.1% of 360,000 active;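 active means mean replicate inhibition score of at least 50 and every replicate individually at or above 50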;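 further: 0% = plate neutral controls and 100% = maraviroc near 300 nM; one replicate is shown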
eIF4H FP inh = inhibitors of RNA binding by human eIF4H; Q15056; eIF4H fluorescence polarization binding assay; inhibition, % at 35 µM; 0.94% of 290,000 active;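 active means 50% or more with normal probe brightness, or confirmed in later tests; about a fifth of its hits are not listed in these tables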;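 further: calls also rest on retests at 20 µM and on dose response follow-up; 0% = protein and probe with vehicle and 100% = probe without protein; strong numbers were not always called active; many hits fall short of the cut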
MT1-MMP act inh = blocks activation of human MT1-MMP | 0.061% of 360,000 active | GFP/RFP ratio change, % at 20 µM | HT1080 RFP-PRO-GFP cells, GFP/RFP ratio fluorescence, overnight; percent of plate control window, DMSO zero;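 active means GFP/RFP ratio change of at least 30% with cell ATP level not reduced by more than half and red fluorescence within 50% of control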; further: strong numbers were not always called active
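Assay system: RFP-PRO-GFP reporter HT1080 cells; read-out basis: GFP/RFP fluorescence ratio; benchmarks: DMSO wells and RFP-L50D-GFP cells; doses: 20 µM single dose, 1% DMSO; schedule: overnight cell settling, then overnight compound exposure, 37 °C, 5% CO2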
CSC inhib = blocks cancer stem cells. cancer stem cell-like cells viability, luminescence. inhibition, % at 7.5 µM. 1.1% of 300,000 active. AID 2717;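 active means mean at 75% or more and at least half the replicates too; tested in HMLE shEcad cells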;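 further: 0% = median of negative and 100% = median of positive control wells; the first replicate is given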
Rce1 inhib = blocks yeast Ras-converting enzyme; yeast membranes, quenched prenylated peptide cleavage fluorescence; AID 2563; calls only; 0.27% of 290,000 active; Q03530;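 active means fall in fluorescence gain of 50% or more versus controls, with final raw signal at or below 3038400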;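 further: plate controls were neutral control wells for no effect and wells lacking membranes for full effect; tested at 10 µM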
MT1-MMP act inh RFP = also measured in MT1-MMP act inh; calls as there; RFP signal change, %; measured here: RFP expression control read;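 0 = vehicle wells; hits needed this value within 50% of zero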
Starred values were filed as active, the others as inactive; i = inactive; / = no result given.

Order of values – PABP polyA inh	MT1-MMP act inh RFP	Env fusion inh	CSC inhib	UUG fidelity	MT1-MMP act inh	eIF4H FP inh	Rce1 inhib
> COC(=O)c1cccc(C23CC4(C2)[C@H](CN(Cc2ccc(-c5ccccc5)cc2)[C@@H]4c2ccccc2)C3c2ccccc2)c1 (stereo partly specified)
  -9	-1	-38	30	-14	1	-4	i
> CCC(=O)N1CCc2cc(S(=O)(=O)N3CCN(C(=O)c4ccco4)CC3)ccc21
  -5	-7	/	-7	4	-1	-3	i
> COc1ccc(CN(C)C(=O)C2CC(=O)N(c3ccc4c(c3)OCCO4)C2)cc1 (stereo unspecified)
  /	4	0	/	13	1	/	/
> COc1ccc(/C=N/NC(=O)COc2cc(C)cc(C)c2)cc1COC(C)=O
  -4	5	26	/	-5	3	-3	i
> CCOC(=O)NC(Nc1ccc(OC)cc1)(C(F)(F)F)C(F)(F)F
  8	5	-2	-16	/	5	-4	i
> COc1ccccc1CC(=O)O/N=C(\N)Cc1cccc2ccccc12
  12	37	11	-12	-5	21	28	i
> O=C(NCc1ccccn1)Nc1ccc(Br)cc1Cl
  7	0	-1	4	-18	-5	-17	i
> Cc1cc(C)nc(CCNC(=O)c2cc(COc3ccccc3)on2)n1
  2	-1	-8	-6	-13	-2	-7	i
> COc1ccc(NC(=O)C2CCCN(c3nn4c(=O)cc(C)nc4s3)C2)c(OC)c1 (stereo unspecified)
  2	2	8	-1	-12	-2	7	i
> COc1ccc(C)cc1S(=O)(=O)Nc1cccc(C)c1
  0	-7	8	-3	/	-8	-2	i
> Cc1ccc(C)c(CN2CCC(CNC(=O)CCc3nnc4ccc(N5CCC(C)CC5)nn34)CC2)c1
  -5	1	13	-10	-19	-5	-6	i
> O=C(C(c1ccccc1)c1ccccc1)N1CCC(c2nc(-c3ccccc3Cl)no2)CC1
  /	-1	/	54	-9	2	/	i
> CC(=O)c1ccc(N2CCN(C(=S)Nc3ccc(Oc4ccccc4)cc3)CC2)cc1
  0	-27	3	41	/	-10	-6	i
> O=C(COc1ccccc1)Nc1nc2cc3c(cc2s1)OCO3
  -5	0	-17	55	-15	3	-16	i
> CC(Oc1ccc(Cl)cc1Cl)C(=O)NCCCN1CCOCC1 (stereo unspecified)
  -1	4	9	-13	10	1	-9	i
> CN(C)CCCN(Cc1cc2cc3c(cc2[nH]c1=O)OCO3)C(=S)Nc1cccc(Cl)c1
  -10	-16	-13	/	/	-12	-14	i
> O=C(Nc1cc(C(F)(F)F)ccc1N1CCCC1)c1cccnc1
  0	0	10	-9	-16	-2	-6	i
> COc1nc(Cc2ccc(Cl)cc2)nc2ccccc12
  -22	-1	13	-6	/	-4	0	i
> COCCn1c(SCC(=O)NC(=O)NCc2ccccc2)nc2ccccc2c1=O
  /	-4	/	6	-15	5	/	/
> COc1ccc(Cn2c(=O)[nH]c3cc(C(=O)N4CCN(c5ccc(OC)cc5)CC4)ccc3c2=O)cc1
  -16	-4	/	-10	-15	1	-2	i
> CCn1c(CNC(=O)C23CC4CC(CC(C4)C2)C3)nnc1SCC(=O)Nc1nnc(C)s1
  -6	4	-20	/	-11	2	-5	i
> CC(C)CCNC(=O)C(c1ccco1)N(C(=O)Cn1nnc2ccccc21)c1ccc2c(c1)OCO2 (stereo unspecified)
  -8	3	/	-4	-9	5	-3	i
> C/C(=N\NC(=O)c1cccc2ccccc12)c1cccs1
  -2	-2	/	5	-9	1	-9	i
> COc1ccc(/C=C(\C#N)C(=O)Nc2ccc3[nH]c(=O)[nH]c3c2)cc1
  -7	2	1	11	/	2	12	i
> CCn1cnc2c1c(=O)n(CC(=O)Nc1ccc3c(c1)OC(F)(F)O3)c(=O)n2Cc1ccccc1
  1	-5	/	-11	-4	5	-16	i
> Cc1nc(C)n(CC(O)COc2ccc3ccccc3c2)n1 (stereo unspecified)
  -3	-3	-3	-8	-7	0	-8	i
> Cc1ccc(CN2CCN(/N=C/c3cccnc3)CC2)c(C)c1
  19	2	-3	4	-23	3	8	i
> COc1ccc(Cl)cc1NC(=O)CN1CCC(NC(=O)C2CC2)CC1
  9	-6	1	8	-4	-1	8	i
> Cc1ccc(NC(=O)CCC(=O)NNC(=S)Nc2ccccc2)c(C)c1
  -2	2	-2	-12	/	1	5	i
> CC(C)Oc1ccc(/C=N/NC(N)=S)cc1
  -9	-14	4	-3	-15	-10	-2	i
> CCOc1ccc(-c2nnn(CC(=O)Nc3cccc(OC)c3)n2)cc1OCC
  -15	-2	3	-5	-15	1	-2	i
> CCCn1c(N)c(C(=O)CSc2nnc(Cc3cccs3)n2C2CC2)c(=O)n(C)c1=O
  /	-13	0	-11	1	-1	/	/
> Cc1cc(C)n(CCC(=O)N=Nc2c(O)[nH]c3ccc(Br)cc23)n1
  5	0	-12	13	/	5	-5	i
> O=C(Cn1c2c(c(=O)n3ncnc13)CCC2)N/N=C/c1ccc(Cl)cc1
  6	-2	13	3	/	-2	-2	i
> COc1ccc(C(C)=O)cc1COC(=O)c1c(C)nn(-c2ccccc2)c1C
  5	-5	4	8	-4	3	-3	i
> CN(C)CCCNC(=S)N(CCCN(C)C)Cc1cc2cc3c(cc2[nH]c1=O)OCO3
  27	1	3	-10	5	3	9	i
> O=C(NCc1ccco1)C1CC(c2cccc([N+](=O)[O-])c2)=NO1 (stereo unspecified)
  4	0	-84	37	-8	2	0	i
> CCOc1ccc(NC(=O)c2ccc(N3CC4CC(C3)c3cccc(=O)n3C4)c(NC(=O)c3ccncc3)c2)cc1 (stereo unspecified)
  -8	1	3	-13	-1	0	2	i
> O=C1c2ccccc2C(=O)N1Cc1nn2c(-c3ccc(Cl)cc3)nnc2s1
  6	/	7	6	-21	/	-8	i
> CC(C)Cc1nc(Cl)c(C#N)c2c1CCCC2
  6	-2	16	-6	-6	-6	-4	i
> Cc1ccc(C)c(OCCC(=O)OCC(=O)N2CCN(S(=O)(=O)c3ccc(Cl)cc3)CC2)c1
  /	-1	-25	25	2	0	/	i
> CC(=O)Nc1ccc(NCN2C(=O)[C@@H]3[C@H]4CC[C@H](C4)[C@@H]3C2=O)cc1
  -15	0	-1	/	/	-1	-4	i
> CC(C)c1ccc(NC2=NCC(=O)N2Cc2cccs2)cc1
  12	5	-25	5	/	5	-5	/
> CC1(C)CC2(CCO1)N1CC3(C)CN2CC(C)(C1)C3O (stereo unspecified)
  -11	2	/	-1	-23	3	-4	i
> CCCCN(C)/C=N/c1c(C#N)cnn1-c1ccc(C)cc1
  2	-7	46	3	-13	2	-7	i
> CCc1nnc(SCC(=O)Nc2ccc(N3CCOCC3)cc2)n1C
  -6	0	7	-9	-11	-3	-2	i
> CNC(=O)c1nc(C)n(-c2ccc(Cl)cc2Cl)n1
  -8	0	-4	-10	/	0	9	i
> O=C(Nc1ccccc1)NC1CCS(=O)(=O)C1 (stereo unspecified)
  -2	2	/	1	-18	6	4	i
> Cc1cc2c(c(=O)o1)C(C13C=CC(CC1)C3)C(C#N)=C(N)O2 (stereo unspecified)
  14	10	/	4	-12	-3	6	/
> COCCNC(=S)NN=C1CCCCCC1
  8	-3	18	/	/	-1	-7	i
> CCOC(=O)c1sc(NC(=O)c2cc(-c3cccc(O)c3)on2)c(C(=O)OCC)c1C
  21	1	-10	-1	-2	6	-12	i
> O=C(NNC(=O)c1ccccc1OCc1ccccc1)c1ccccc1F
  -2	2	-19	1	7	1	-14	i
> Cn1nc(C(F)(F)F)c2cc(C(=O)Nc3ccc(F)cc3)sc21
  -1	-3	-5	6	/	4	-8	i
> CCOC(=O)Cc1cc(=O)[nH]c(/N=C(\N)Nc2ccc(C)cc2C)n1
  -11	-8	5	/	-10	-7	-5	i
> CC(C)S(=O)(=O)c1csc(NC(=O)Nc2cccc([N+](=O)[O-])c2)c1Cl
  -5	-11	15	23	/	3	-6	i
> COC(=O)c1cc2n(n1)CCCNC2=O
  -8	3	-2	-3	/	-2	-2	i
> CC(C)(C)C1COc2ccccc2N1C(=O)c1cccc(Cl)c1 (stereo unspecified)
  6	-6	32	40	-5	-3	-5	i
> Cc1nonc1NC(=O)CSc1nc2ccccc2[nH]1
  3	-3	5	6	/	1	5	i
> O=C1CC(c2cccc(Cl)c2)CC(O)=C1C=Nc1cccc(Cl)c1 (stereo unspecified)
  -11	-3	/	8	/	-4	33	i
> O=C(CSc1cccc[n+]1[O-])c1ccc(Cl)cc1
  -4	-2	2	-19	/	-2	2	i

Single entries from the entries so far:
For MT1-MMP act inh, `O=C1CC(c2cccc(Cl)c2)CC(O)=C1C=Nc1cccc(Cl)c1` (stereo unspecified) shows -4
For Env fusion inh, `CCOc1ccc(-c2nnn(CC(=O)Nc3cccc(OC)c3)n2)cc1OCC` shows 3

Other structures:
Order of values – PABP polyA inh	MT1-MMP act inh RFP	Env fusion inh	CSC inhib	UUG fidelity	MT1-MMP act inh	eIF4H FP inh	Rce1 inhib
> O=C(/C=C/c1ccccc1)Nc1cc(C(=O)O)cc(C(=O)O)c1
  1	3	-4	-2	-14	1	4	i
> CC(C)(C)C(=O)CSc1nnc(Nc2ccccc2)s1
  -9	2	-3	0	-20	6	2	i
> COc1cc2nc(C3CCC3)nc(N3CCN(c4ccccc4OC)CC3)c2cc1OC
  3	-23	/	8	/	-20	-4	i
> CCCc1cc2c(c(NC(C)=O)n1)c(=O)oc1ccccc12
  -5	-3	-40	/	-13	-8	-13	i
> COC(=O)CNC(c1ccccc1)c1cc(Br)ccc1N (stereo unspecified)
  -12	-4	26	2	2	-1	-15	i
> CCOC(=O)c1c(NC(=O)CN2C(=O)NC3(CCCC3)C2=O)sc(C)c1CC
  /	1	-16	-14	-1	-3	/	i
> NC(=O)CC(NC(=O)c1ccccc1)c1ccc(NCCc2ccc(Cl)cc2)c([N+](=O)[O-])c1 (stereo unspecified)
  -8	-6	1	37	-22	14	-9	i
> O=[N+]([O-])c1ccc2nc(SCc3cn4cccnc4n3)[nH]c2c1
  8	-2	1	-9	/	2	6	i

At a glance, some entries already given.
Order of values – PABP polyA inh	MT1-MMP act inh RFP	Env fusion inh	CSC inhib	UUG fidelity	MT1-MMP act inh	eIF4H FP inh	Rce1 inhib
> COC(=O)c1cccc(C23CC4(C2)[C@H](CN(Cc2ccc(-c5ccccc5)cc2)[C@@H]4c2ccccc2)C3c2ccccc2)c1 (stereo partly specified)
  -9	-1	-38	30	-14	1	-4	i
> CCC(=O)N1CCc2cc(S(=O)(=O)N3CCN(C(=O)c4ccco4)CC3)ccc21
  -5	-7	/	-7	4	-1	-3	i
> COc1ccc(CN(C)C(=O)C2CC(=O)N(c3ccc4c(c3)OCCO4)C2)cc1 (stereo unspecified)
  /	4	0	/	13	1	/	/
> COc1ccc(/C=N/NC(=O)COc2cc(C)cc(C)c2)cc1COC(C)=O
  -4	5	26	/	-5	3	-3	i
> CCOC(=O)NC(Nc1ccc(OC)cc1)(C(F)(F)F)C(F)(F)F
  8	5	-2	-16	/	5	-4	i
> COc1ccccc1CC(=O)O/N=C(\N)Cc1cccc2ccccc12
  12	37	11	-12	-5	21	28	i
> O=C(NCc1ccccn1)Nc1ccc(Br)cc1Cl
  7	0	-1	4	-18	-5	-17	i
> Cc1cc(C)nc(CCNC(=O)c2cc(COc3ccccc3)on2)n1
  2	-1	-8	-6	-13	-2	-7	i
> COc1ccc(NC(=O)C2CCCN(c3nn4c(=O)cc(C)nc4s3)C2)c(OC)c1 (stereo unspecified)
  2	2	8	-1	-12	-2	7	i
> COc1ccc(C)cc1S(=O)(=O)Nc1cccc(C)c1
  0	-7	8	-3	/	-8	-2	i
> Cc1ccc(C)c(CN2CCC(CNC(=O)CCc3nnc4ccc(N5CCC(C)CC5)nn34)CC2)c1
  -5	1	13	-10	-19	-5	-6	i

Compound activity as filed in PubChem BioAssay.
